RanGTP-Imp inh = inhibitors of RanGTP-importin-beta interaction, primary screen, biochemical, FRET, CFP-Ran, YFP-importin-beta, homogeneous | cell-free CFP-Ran/YFP-importin-beta FRET ratio | inhibition, % (concentration not given with the values) | actives 1.1% (n = 300,000) | AID 2216;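 active = most replicates above 15%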;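 note: 0% = DMSO wells and 100% = Ran loaded with GDP instead of GTP; wells of about 40 µL received 100 nL stock; the first replicate is given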
LANA-H2A inh = blocks KSHV LANA binding to histone H2A/H2B | cell-free LANA-H2A/H2B peptide, fluorescence polarization | AID 2629 | actives 0.6% (n = 320,000) | inhibition, % (concentration not given with the values) | Q9QR71; in the data active = inhibition mostly above about 10%, no sharp cut-off; inactive = mostly below about 6.7%;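 note: stock transfer was 7.5 nL into about 10 µL; 0% = median of vehicle wells and 100% = median of positive control wells; one replicate is shown; the record names a cut of 25% in any replicate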
T cruzi repl = blocks replication of Trypanosoma cruzi; inhibition, % (test concentration not listed); actives 1.4% (n = 300,000); AID 1885; T. cruzi beta-gal in NIH3T3, luminescence, 90 h;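 active = mean inhibition across valid replicates above about 55%, limit read from the data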;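 note: signal also drops with host cell toxicity which is not excluded here; 0% = plate median of DMSO wells and 100% = zero luminescence signal; higher percent means less beta-gal luminescence so fewer parasites; stock transfer was 50 nL into about 50 µL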
Beta apoptosis = beta cell apoptosis inhibition. protection from apoptosis, % (no concentration beside the values). AID 435005. actives 0.8% (n = 300,000). INS-1E cytokine-induced death, ATP luminescence, 48 h; percent of positive-control rescue, neutral wells zero;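 active = all replicates at 75% or more, or half of them and the mean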;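 note: 0% = cytokine-treated negative control wells and 100% = positive control rescue; higher means more ATP so stronger rescue from cytokine killing; wells of about 40 µL received 100 nL stock; the first replicate is given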
Bfl-1 A1 inh = inhibitors of the anti-apoptotic protein A1, read as caspase activation. MEF A1-2A-BIM cells, Caspase-Glo 3/7 luminescence, 3 h; percent of clofoctol response, vehicle zero. caspase activation, % (test concentration not listed). actives 0.066% (n = 330,000). AID 2462;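 active = over half of replicate activation scores above 10%, or exactly half above 10 with the replicate mean above 10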;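 note: wells of about 30 µL received 50 nL stock; many hits fall short of the cut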
Calb FLC = C. albicans growth modulation with fluconazole; C. albicans CaCi-2 (fluconazole-resistant clinical isolate) + fluconazole, Alamar Blue growth, 48 h; growth inhibition, % (concentration not given with the values); actives 0.57% (n = 300,000);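 active = most replicates above 75%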;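 note: all wells also contain fluconazole at 8 µg/ml as a sub-toxic cotreatment; 0% = median of DMSO wells and 100% = median of geldanamycin control wells; wells of about 8 µL received 7.5 nL stock; the first replicate is given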
Beta2AR agonist = activates human beta-2 adrenergic receptor causing internalization; Am2.2-beta2AR cells, FAP receptor internalization, flow cytometry; reference of the scale not given here; P07550; actives 0.43% (n = 340,000); response, % (test concentration not listed);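 active = response above a set limit, near 3 SD of response in nonfluorescent compounds, cut at about 42% in these data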;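 note: stock transfer was 100 nL into about 11 µL; a reference agonist was the positive control; negative values mostly stem from fluorescent compounds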
Target sequence (P07550 whole entry, looked up): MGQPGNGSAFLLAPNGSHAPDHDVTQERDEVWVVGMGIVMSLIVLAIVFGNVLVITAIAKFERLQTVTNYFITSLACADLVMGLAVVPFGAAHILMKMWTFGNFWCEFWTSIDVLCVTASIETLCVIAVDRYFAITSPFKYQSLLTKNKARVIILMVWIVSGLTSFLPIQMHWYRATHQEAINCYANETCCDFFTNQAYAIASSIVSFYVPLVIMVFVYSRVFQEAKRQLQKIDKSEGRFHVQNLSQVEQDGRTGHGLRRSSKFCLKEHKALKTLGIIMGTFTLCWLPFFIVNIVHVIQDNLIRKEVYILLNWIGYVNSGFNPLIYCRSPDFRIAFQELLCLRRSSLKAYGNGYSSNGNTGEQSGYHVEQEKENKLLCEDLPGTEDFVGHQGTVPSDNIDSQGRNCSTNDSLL
UCH37 DUB inh = blocks the human deubiquitinase UCH37 | purified proteasome/UCH37, Ub-AMC cleavage fluorescence | inhibition, % (concentration not given with the values) | actives 0.33% (n = 330,000) | AID 588478;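 active = mean of two replicates above 20%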;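 note: 0% = compound-free wells with enzyme and 100% = wells lacking proteasome; stock transfer was 100 nL into about 20 µL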
Target sequence (Q9Y5K5 whole entry, looked up): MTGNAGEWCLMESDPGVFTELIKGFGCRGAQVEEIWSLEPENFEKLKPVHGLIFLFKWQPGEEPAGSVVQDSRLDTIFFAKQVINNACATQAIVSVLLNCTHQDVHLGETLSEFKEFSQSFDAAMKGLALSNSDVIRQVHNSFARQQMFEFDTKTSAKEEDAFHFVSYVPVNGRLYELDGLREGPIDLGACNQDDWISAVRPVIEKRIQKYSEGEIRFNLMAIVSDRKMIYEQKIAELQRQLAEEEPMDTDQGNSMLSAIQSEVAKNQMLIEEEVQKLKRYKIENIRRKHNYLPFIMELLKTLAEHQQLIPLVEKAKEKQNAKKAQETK
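System: Proteasome-associated human UCH37 deubiquitinase; Input: 0.15 nM proteasome in added enzyme buffer; Also added: Ub-AMC substrate from 1 µM stock; Incubation: 30 min compound-proteasome preincubation then 25 min substrate reaction, room temperature; Detection: fluorescence, ex 355 nm, em 460 nm; Read-out: % inhibition of Ub-AMC cleavage fluorescence; Benchmarks: no-proteasome and no-compound wells.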
Numbers without * were called inactive; x = no result given; & = joins results of further samples.

Results follow in this order: Beta2AR agonist | RanGTP-Imp inh | UCH37 DUB inh | Beta apoptosis | T cruzi repl | Calb FLC | Bfl-1 A1 inh | LANA-H2A inh
- CCCOC1CCCN(C(=O)c2cc(COc3ccc(-n4cncn4)cc3)on2)C1 (configuration not stated)
    -3 | 4.8 | 2.4 | 19 | -30 | 16 | -0.1 | 0.4
- O=C1C=C(/C=C/c2ccccc2)C[C@@H](c2ccc(F)cc2)C1
    5 | x | -0.4 | -5 | x | x | -0.2 | 0.0
- COC(=O)c1[nH]c2ccc(C)cc2c1NC(=O)CN1CCc2cc(OC)c(OC)cc2C1
    21 | 4.4 | -4.9 | 3 | 6 | x | 0.2 | -19&-12
- Fc1ccc(-c2nnc(CN3CCN(c4ncc(C(F)(F)F)cc4Cl)CC3)o2)cc1
    -12 | -1.7 | 0.8 | 0 | -10 | 6 | 0.1 | 5.3
- Cc1c(C(=O)N2CCOCC2)[nH]c2c1C(=O)CC(c1ccccc1Cl)C2 (configuration not stated)
    14 | 1.7 | -0.2 | 9 | -37 | 5 | 0.5 | 5.4
- CCCOc1ccc(-c2c(C(=O)N/N=C(\C)c3cccnc3)nnn2-c2nonc2N)cc1
    -8 | 3.8 | x | x | -3 | 10 | -1.4 | -0.3
- COc1ccc(C)cc1NC(=S)N1CCN(S(C)(=O)=O)CC1
    4 | -1.2 | 3.7 | -1 | 8 | -4 | 0.3 | 4.2
- O=C(Nc1ccc(F)cc1F)c1ccccc1NC(=O)C1CC=CCC1C(=O)O (configuration not stated)
    6 | 0.8 | 0.5 | -3 | -4 | 7 | 0.2 | 6.6
- O=C(CSc1nncs1)N1CCN(C(=O)c2ccco2)CC1
    -4 | 1.5 | 3.0 | x | -15 | -11 | -0.9 | -0.9
- Cc1cc(SCC(=O)NC2CCCCC2)nc2ccccc12
    -2 | 4.3 | 1.1 | -2 | 16 | 3 | 0.3 | 2.0
- O=c1c(N2CCCCC2)coc2ccccc12
    4 | 1.2 | -1.2 | 1 | -15 | -7 | -0.7 | -0.2
- Fc1ccc(Cn2nnnc2C(c2cccs2)N2CCN(C3CCCCC3)CC2)cc1 (configuration not stated)
    -2 | 0.4 | -0.1 | 4 | 18 | -25 | -0.4 | 1.7
- CCCCCCOc1ccc(/C=c2\s/c(=C(/C#N)C(=O)NCc3ccco3)n(-c3ccccc3)c2=O)cc1
    -2 | 27* | x | -9 | -6 | -9 | -0.6 | -3.9
- CCOc1ccccc1C1CC(=O)Nc2cc3c(cc21)OCCO3 (configuration not stated)
    28 | -2.1 | 4.1 | 19 | 21 | -6 | 0.1 | 2.1
- CCCn1c(=O)c2c(nc3n2CCCN3CCc2ccccc2)n(C)c1=O
    -6 | -3.4 | 2.1 | 5 | 26 | -1 | -0.6 | 0.5
- O=C(NCC1CCCO1)c1ccc(CS(=O)(=O)c2ccc(Cl)cc2)o1 (configuration not stated)
    1 | 2.3 | 0.4 | -5 | 10 | -16 | -0.2 | 4.2
- CC(C)COc1ccc(C(=O)NC(CC(C)C)C(=O)O)cc1 (configuration not stated)
    -3 | -3.5 | -4.4 | -3 | -8 | -8 | -0.6 | -0.1
- COc1ccc(NC(=O)CSc2nncc3ccccc23)cc1
    -14 | -5.2 | 12 | 1 | -2 | -8 | 0.5 | -14
- O=C(CCC(=O)N1CCN(c2ccccc2F)CC1)N1CCN(c2ccccc2)CC1
    7 | -4.3 | 2.7 | 1 | -1 | -2 | 9.4* | -3.0
- NC(=O)c1ccc(N2CCN(c3ccccc3F)CC2)c([N+](=O)[O-])c1
    0 | 2.1 | 6.5 | -3 | 15 | 6 | 0.5 | -6.5
- O=C1CCCc2c1cnc1ncnn21
    1 | -30 | 3.8 | -3 | -8 | 11 | 0.0 | 4.1
- CC(C)(O)C#Cc1ccc(C(=O)N2CCCC(CNS(=O)(=O)c3cccs3)C2)o1 (configuration not stated)
    1 | -0.6 | 0.5 | -4 | 3 | 0 | -0.4 | -1.1
- COC(=O)c1cccc2c1NC(=O)C2=O
    8 | 3.3 | 13 | -16 | -10 | -1 | -0.7 | 0.5
- CC(NC(N)=O)C(=O)OCc1ccc(Cl)cc1Cl (configuration not stated)
    5 | -0.8 | -3.2 | -3 | -8 | -25 | 0.6 | -1.2
- COc1ccc(S(=O)(=O)N2CCC(C(=O)NCc3ccc(C)cc3)CC2)cc1
    -4 | -0.3 | x | -5 | 6 | 3 | -0.3 | 6.8
- COc1ccc(CN2CCN(C(=O)CN3C(=O)C4C5C=CC(C5)C4C3=O)CC2)c(OC)c1OC (configuration not stated)
    -1 | 7.0 | 4.9 | -6 | -11 | 3 | -0.8 | 1.1
- CCN(CC)C(=O)c1cc(S(=O)(=O)N2CCCCC2)c[nH]1
    -2 | 4.0 | 5.4 | -1 | -9 | -5 | 0.0 | -5.5
- CC(C)C(C(=O)OCC(=O)c1ccc2c(c1)NC(=O)CO2)N1C(=O)c2ccccc2C1=O (configuration not stated)
    4 | 2.9 | 6.2 | -3 | -6 | 1 | 0.9 | 0.2
- C=CCOc1ccc2ccccc2c1CNc1ncn[nH]1
    -2 | -0.6 | 2.6 | -7 | 12 | -11 | -0.7 | 2.0
- O=C(CNCC1CCCCC1)Nc1ccc(N2CCCCC2)cc1
    x | -2.7 | -0.1 | 1 | 25 | -23 | 0.4 | -2.7
- CN(C)CCCOC(=O)CCc1ccccc1
    -2 | 1.3 | -0.8 | 1 | -4 | -28 | -0.6 | -0.4
- O=C(CNC(=O)c1ccc(Oc2ccccc2)cc1)OC1CCCCC1=O (configuration not stated)
    -17 | -0.5 | 4.0 | 0 | -9 | -1 | 0.6 | 6.8
- COc1cc(NS(=O)(=O)c2ccc(C)cc2)ccc1-n1cnnn1
    -4 | 1.9 | -1.3 | 7 | -3 | 4 | 1.1 | 0.7
- Cc1nn(Cc2nc(-c3cccs3)no2)c(C)c1Br
    -14 | -0.7 | 1.2 | -3 | 9 | -8 | 0.0 | -2.6
- Cc1c(NC(=O)C(C)OC(=O)c2ccccc2O)c(=O)n(-c2ccccc2)n1C (configuration not stated)
    -8 | x | 3.3 | 1 | x | x | -0.9 | 1.0
- COc1ccc(Cc2nnc(SCC(=O)Nc3ccc(C)cc3)n(N)c2=O)cc1
    -4 | -2.8 | 0.4 | -9 | 2 | -4 | -0.2 | 0.3
- Cc1cccc(NC(=O)CSc2n[nH]c(-c3ccncc3)n2)c1
    6 | 4.7 | 1.4 | 2 | -14 | 1 | -0.8 | -4.7
- CCOC(=O)c1ccc(NC(=O)C(=O)NCc2ccccn2)cc1
    -6 | -2.7 | 3.3 | -4 | 0 | -2 | -0.2 | -2.0
- CC(C)CNC(=O)CSc1n[nH]c(=O)n1CCc1ccccc1
    4 | -2.8 | 4.7 | 2 | -3 | -6 | 0.6 | -5.1
- CCOC(=O)c1c(NC(NC(C)=O)C(Cl)(Cl)Cl)sc2c1CCCC2 (configuration not stated)
    12 | 4.8 | 0.0 | 1 | 21 | 24 | 0.1 | -5.8
- CCc1ccc2[nH]c(=O)c(CN(Cc3ccc(F)cc3)C(c3nnnn3CCN3CCOCC3)C(C)C)cc2c1 (configuration not stated)
    1 | -4.3 | -2.5 | 5 | 18 | 12 | -0.1 | 3.2
- Cc1c(Cl)cccc1NC(=S)NCc1ccc2c(c1)OCO2
    -2 | 11 | 3.8 | -3 | 4 | -5 | 0.6 | 1.8
- Cc1ccc(C(=O)N/N=C\c2ccc(-c3ccc([N+](=O)[O-])cc3)o2)cn1
    17 | -8.3 | x | -10 | 11 | -7 | 0.0 | 1.7
- COC(=O)c1c(NC(=O)c2ccccc2F)sc2c1C(C(=O)OC)CC2 (configuration not stated)
    5 | 2.4 | -54 | -8 | 5 | -2 | 0.2 | 1.6
- COc1cc(OC)c(C(=O)NCC(c2cccs2)N(C)C)cc1OC (configuration not stated)
    -4 | -4.2 | 1.9 | -4 | 5 | -19 | -0.7 | 3.6

Some of the entries above, reformatted.
| SMILES | Beta2AR agonist | RanGTP-Imp inh | UCH37 DUB inh | Beta apoptosis | T cruzi repl | Calb FLC | Bfl-1 A1 inh | LANA-H2A inh |
| --- | --- | --- | --- | --- | --- | --- | --- | --- |
| COC(=O)c1c(NC(=O)c2ccccc2F)sc2c1C(C(=O)OC)CC2 (configuration not stated) | 5 | 2.4 | -54 | -8 | 5 | -2 | 0.2 | 1.6 |
| COc1cc(OC)c(C(=O)NCC(c2cccs2)N(C)C)cc1OC (configuration not stated) | -4 | -4.2 | 1.9 | -4 | 5 | -19 | -0.7 | 3.6 |

Compound profiles, from the list above:
Record of COc1cc(NS(=O)(=O)c2ccc(C)cc2)ccc1-n1cnnn1 = Beta2AR agonist: -4; RanGTP-Imp inh: 1.9; UCH37 DUB inh: -1.3; Beta apoptosis: 7; T cruzi repl: -3; Calb FLC: 4; Bfl-1 A1 inh: 1.1; LANA-H2A inh: 0.7
Record of COC(=O)c1c(NC(=O)c2ccccc2F)sc2c1C(C(=O)OC)CC2 (configuration not stated) = Beta2AR agonist: 5; RanGTP-Imp inh: 2.4; UCH37 DUB inh: -54; Beta apoptosis: -8; T cruzi repl: 5; Calb FLC: -2; Bfl-1 A1 inh: 0.2; LANA-H2A inh: 1.6
Record of O=C(CNC(=O)c1ccc(Oc2ccccc2)cc1)OC1CCCCC1=O (configuration not stated) = Beta2AR agonist: -17; RanGTP-Imp inh: -0.5; UCH37 DUB inh: 4.0; Beta apoptosis: 0; T cruzi repl: -9; Calb FLC: -1; Bfl-1 A1 inh: 0.6; LANA-H2A inh: 6.8

Following part
Results follow in this order: Beta2AR agonist | RanGTP-Imp inh | UCH37 DUB inh | Beta apoptosis | T cruzi repl | Calb FLC | Bfl-1 A1 inh | LANA-H2A inh
- Cc1ccccc1C(=O)N1CCC(C(=O)Nc2sccc2C(N)=O)CC1
    0 | x | 0.2 | -8 | x | x | -0.3 | -7.3
- CCCCOc1cccc(C(=O)NC(=S)Nc2cccc(C(F)(F)F)c2)c1
    -2 | -3.3 | 2.6 | x | 6 | -1 | 0.0 | 3.6
- O=C(COc1ccccc1)NS(=O)(=O)c1ccc(Cl)cc1
    -1 | -0.1 | 1.0 | -3 | -4 | 5 | 0.1 | -0.1
- COCCN(CCOC)c1nc(-c2ccc(Cl)cc2)nc2ccccc12
    -2 | -2.0 | -3.3 | 2 | 15 | 9 | 0.4 | -1.3
- CCNC(=O)NC(=O)C(C)OC(=O)c1oc2ccc(OCC)cc2c1C (configuration not stated)
    -19 | 0.6 | -7.6 | 0 | 2 | -3 | 1.0 | -20
- CCOC(=O)C1CCN(CCC(=O)Nc2cc(C)ccc2C)CC1
    -6 | -0.4 | x | -4 | 1 | 2 | 0.8 | -2.1
- COC(=O)C(CO)Nc1ncnc2onc(-c3ccc(F)cc3)c12 (configuration not stated)
    1 | 3.6 | 2.2 | -3 | -10 | -15 | 3.5 | 0.7
- Cc1ccc(CNC(=O)c2cc(-c3ccccc3)n(Cc3cc(C)no3)n2)cc1
    -2 | x | 24* | -6 | x | x | 0.6 | -1.4
- CCOC(=O)N1CCC(NC(=O)C(C)n2c3ccccc3c3cnn(C)c(=O)c32)CC1 (configuration not stated)
    -7 | 0.7 | -3.1 | 2 | 0 | -5 | 0.8 | 1.0

Source: PubChem
